Assay outcomes (PubChem)
hNpr1 antagonist: antagonists of human natriuretic peptide receptor Npr1; HEK293 hNpr1 GloSensor cGMP, ANP-stimulated luminescence; actives 1.6% (n = 76,000); Potency, µM (highest dose often 46.3 µM), inactives show at the highest dose activity change, negative = inhibition, usual class: inhibitors; active = well fitted inhibition curve with a large enough effect; inconclusive = small, poorly fitted or top-dose-only effect; inactive = no such curve, though single readings can be large or run the other way;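 further: nearly all actives have a fitted effect of over 60% in size; nearly all hits also lower the signal before the agonist is added; a reference antagonist and vehicle were the controls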
Target sequence (P16066 whole entry, looked up): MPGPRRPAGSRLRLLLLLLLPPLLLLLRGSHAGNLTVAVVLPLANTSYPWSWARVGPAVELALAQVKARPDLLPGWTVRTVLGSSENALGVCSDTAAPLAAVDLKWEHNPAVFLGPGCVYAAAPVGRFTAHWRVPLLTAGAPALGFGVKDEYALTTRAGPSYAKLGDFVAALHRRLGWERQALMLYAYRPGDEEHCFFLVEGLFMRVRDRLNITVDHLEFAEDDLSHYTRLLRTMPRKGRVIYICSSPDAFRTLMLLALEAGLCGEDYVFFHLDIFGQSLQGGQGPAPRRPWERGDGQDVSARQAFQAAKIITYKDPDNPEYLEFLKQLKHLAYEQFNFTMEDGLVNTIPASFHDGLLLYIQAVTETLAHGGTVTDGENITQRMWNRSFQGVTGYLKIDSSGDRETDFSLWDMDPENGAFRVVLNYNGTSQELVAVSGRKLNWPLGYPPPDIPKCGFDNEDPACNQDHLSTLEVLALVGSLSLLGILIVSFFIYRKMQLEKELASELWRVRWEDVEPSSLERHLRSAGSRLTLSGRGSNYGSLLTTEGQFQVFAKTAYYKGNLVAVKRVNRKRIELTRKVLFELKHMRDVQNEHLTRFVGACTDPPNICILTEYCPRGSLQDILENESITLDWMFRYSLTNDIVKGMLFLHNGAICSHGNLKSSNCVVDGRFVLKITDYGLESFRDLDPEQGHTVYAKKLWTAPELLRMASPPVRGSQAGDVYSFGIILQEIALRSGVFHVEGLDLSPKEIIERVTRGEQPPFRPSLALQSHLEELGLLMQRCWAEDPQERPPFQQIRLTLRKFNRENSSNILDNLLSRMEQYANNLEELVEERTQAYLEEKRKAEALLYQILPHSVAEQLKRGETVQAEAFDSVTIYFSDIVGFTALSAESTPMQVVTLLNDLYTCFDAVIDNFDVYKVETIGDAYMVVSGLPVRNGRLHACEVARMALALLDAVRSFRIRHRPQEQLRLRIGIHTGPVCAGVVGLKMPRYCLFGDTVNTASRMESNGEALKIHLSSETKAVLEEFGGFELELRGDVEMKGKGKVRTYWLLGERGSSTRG
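HEK293 cells stably expressing human Npr1 and cGMP GloSensor pGS-40F, loaded 2 h with 2% GloSensor reagent, given compound 30 min at room temperature. Luminescence read before and 20 min after 0.1 nM hNppA.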
The depositor's hits bear a star; ? = inconclusive; [ ] = remark or other dose. On the % scale 0 is the no-effect control and ±100 the full control effect; potency means the concentration at half of the fitted maximal effect. This is a subset; count on the stated rates, not on these rows.

SMILES | hNpr1 antagonist
CCn1nccc1C(=O)NCC1Cn2cccc2C(=O)N1C (centres undefined) | 3%
CN1[C@@H](CCC(=O)NCc2ccc(F)cc2)CNC(=O)[C@@H]2[C@H]1CCN2Cc1cccs1 | 0%
c1ccc(-c2[nH]ncc2CN2CCCC(N3CCN(c4ccccc4)CC3)C2)cc1 (centres undefined) | 1%
O=C([C@@H]1C[C@H](Oc2ccccc2)CN1C(=O)CN1CCOCC1)N1CCOCC1 | 0%
CC(C)N1C[C@H](O)C[C@H]1c1nnc2n1CCN(C(=O)CCc1ccccc1)CC2 | -1%
CCOC(=O)N(C)Cc1cn([C@@H]2CN[C@H](C(=O)N(CC)CC)C2)nn1 | -3%
O=C(NC[C@H]1O[C@@H](CC(=O)N2CCc3ccccc32)[C@H](O)[C@@H]1O)C1CC1 | 1%[70.6 µM]
COCCN(CCOC)C(=O)C1CCc2ncc(-c3ccc(F)cc3)n2C1 (centres undefined) | -15%
Cc1c(-c2ccccc2F)[nH]c2ccc(CNC(=O)CCc3cc(=O)[nH]o3)cc12 | -15%
CN(C)C(=O)C1CN(C(=O)CC2CCCCC2)CC12CCOCC2 (centres undefined) | -2%
CC(C)(CC(=O)O)CC(=O)N[C@H]1C[C@H]2C(=O)Nc3ccc(/C=C/c4ccccc4)cc3C(=O)N2C1 | -2%
CN(C)Cc1ccc(-c2cc3c(ccn3Cc3ccncc3)c(N3CCOCC3)n2)cc1 | -1%[70.6 µM]
CN(C)c1ccc(CN2CCC3(CC2)NC(=O)c2ccccc2O3)cc1 | 0%[70.6 µM]
O=C1OCCCN1CCNC(=O)[C@@]12CNC[C@@H]1CN(Cc1ccccc1)C2 | 4%
CC(C)OCCCNC(=O)C1CC(=O)N(c2n[nH]c3cc(Br)ccc23)C1 (centres undefined) | 0%
CC(=O)N[C@H](C)c1c(-c2ccc(F)cc2)noc1C(=O)O | 10%[70.6 µM]
NC(=O)CCNC(=O)C1=C[C@@H](NC(=O)CC2(CC(=O)O)CCCC2)[C@@H](O)[C@H](O)C1 | 3%[70.6 µM]
CC(=O)N[C@@H]1Cc2ccccc2[C@H]1NC(=O)CCc1cc2n(n1)CCCNC2 | -3%
O=C(Cc1ccsc1)N1CCc2n[nH]c(=O)n2CC1 | -1%
O=C(NCc1cccnc1)[C@@H]1C[C@H](c2ccc(F)cc2)N(Cc2ccccc2Cl)C1 | -12%[70.6 µM]
Cc1cc(CN2CCC3(CC2)CCN(Cc2cscn2)CC3CO)on1 (centres undefined) | 1%
Cc1nn(CC(=O)NCc2ccccc2)c(=O)c2nc(C(C)C)sc12 | 5%
Cc1cccc(OCC(=O)N2CCC(n3cc(-c4nc(C5CC5)no4)nn3)C2)c1 (centres undefined) | 1%
CN(C)c1ccc(CCc2nc(C3CCOC3)no2)cc1 (centres undefined) | 2%
COc1ccc(-c2nc(C(C)C)nc3c2CCN(C(=O)c2cccc(Cl)c2)CC3)cc1 | -20%
CC(=O)Nc1cccc(-c2ncc3c(n2)OCCN(CC2CC2)C3=O)c1 | 0%[70.6 µM]
Cn1cnc(S(=O)(=O)N2CCCCC2c2noc(COCC3CC3)n2)c1 (centres undefined) | 2%
O=C(N[C@@H](Cn1cc(Cl)c(=O)[nH]c1=O)C(=O)O)C1CCC1 | 0%[70.6 µM]
COc1ccc(C(=O)NC[C@H]2O[C@@H](CC(=O)N3CCN(c4ccccc4OC)CC3)[C@H](O)[C@@H]2O)cc1 | 0%
CCN(CC)c1cc(CCC(=O)NCCN(C)C2CCCCC2)ccn1 | 1%
CC(C)CCN1CCC(O)(c2csc(CN3CCc4ccccc4C3)n2)CC1 | 5%[70.6 µM]
COCc1nc(C2CCCN(C(=O)c3ccsc3)C2)no1 (centres undefined) | 2%
CO[C@@H]1CCOC[C@H]1NS(=O)(=O)c1ccc2c(c1)N(C(C)=O)CCO2 | 1%
Cc1ccc(CNC(=O)c2c(OCC(C)C)cc(=O)n3c2CCCCC3)o1 | 1%
CCc1cc(C(=O)N[C@@H]2COCC[C@@H]2OCc2ccccc2)cc(=O)[nH]1 | -2%
Cn1cc(CCNC(=O)c2ccc3oc(-c4cccc(F)c4)nc3c2)cn1 | -8%
COC1CCOC2(CCN(C(=O)COc3ccc(C)cc3)CC2)C1 (centres undefined) | -4%
CC(C)N1CC[C@H](CO)[C@H](NC(=O)C2CC2)C1 | 4%
Cn1cnc2ccc(-c3ccsc3)nc2c1=O | 6%[70.6 µM]
Cc1nccn1CCNC(=O)C1CCCCC(=O)N1Cc1ccccc1 (centres undefined) | -15%
NC[C@H]1O[C@H](Cc2cc(-c3cccc(O)c3)on2)CC[C@@H]1O | 2.5µM*
CN(Cc1cccnc1)c1nc2c(c(=O)[nH]1)CCN(Cc1cccc(F)c1F)CC2 | -5%
CCOC(=O)C1CCCN(C(=O)C2COC3(CCCCC3)N2C(=O)c2ccccc2Cl)C1 (centres undefined) | -2%
Cc1cc(CN2CCC3(CC2)C(C(=O)O)CC(=O)N3C)on1 (centres undefined) | 4%
O=C(NCCc1noc(C2CC2)n1)c1ccco1 | 2%
CN1CCC(N2CCN(S(=O)(=O)c3ccc(F)cc3)CC2)C1=O (centres undefined) | 2%
CC(C)N1CC[C@@H]2[C@H]1C(=O)NC[C@H](CCC(=O)NCc1cccs1)N2C | 2%[70.6 µM]
Cc1ccc(NC(=O)CN2CC3CC(C2)[C@H]2CCCC(=O)N2C3)cc1 (some centres undefined) | 1%
CC1(C(=O)NCCCN2CCc3ccccc3C2)CCCCC(=O)N1 (centres undefined) | -7%
O=C(CC[C@H]1NC(=O)c2ccccc2NC1=O)Nc1nc(-c2ccncc2)cs1 | 5%
COC(=O)[C@@H]1Cc2c([nH]c3ccccc23)[C@H]2C[C@@H](NCc3cccnc3)C[C@@H](c3ccc(F)c(F)c3)N21 | -2%
O=C(Nc1ccc([C@@H](O)[C@H]2COCC(=O)N2Cc2ccc(C(F)(F)F)cc2)cc1)c1ccco1 | -1%
COc1ccc(-c2nnc(C[C@@H]3C[C@@H](C(C)C)[C@H](CN4CCN(C)CC4)C=C3C)o2)cc1 | -2%
CCN1c2cc(C(=O)Nc3cc(C)ccc3C)ccc2C(=O)N2CCCCCC21 (centres undefined) | 5%
CCCN(CC1CCOC1)C(=O)Nc1ccc(Br)c(C)c1 (centres undefined) | 2%
OC(c1nc(Nc2cccc(Cl)c2)n[nH]1)C1CC1 (centres undefined) | -14%[70.6 µM]
Cc1nc(N2CCC(C(=O)NCC3CC3)CC2)nc2cc(S(C)(=O)=O)ccc12 | -1%
Cc1ccc(C(=O)N2CCn3c(nnc3-c3ccccc3)C2)cc1 | -15%[70.6 µM]
CCS(=O)(=O)NCC1(COc2ccc(C(F)(F)F)cn2)C[C@@H](O)[C@@H](O)C1 (some centres undefined) | -6%[70.6 µM]
C=CCOC(=O)Nc1nc2c(s1)C[C@@H]1[C@](C)(CO)[C@H](O)CC[C@@]1(C)[C@@H]2CC(=O)NCCN1CCOCC1 | 4%

Reprinted at random: 2 records from the list.
SMILES | hNpr1 antagonist
C=CCOC(=O)Nc1nc2c(s1)C[C@@H]1[C@](C)(CO)[C@H](O)CC[C@@]1(C)[C@@H]2CC(=O)NCCN1CCOCC1 | 4%
COc1ccc(C(=O)NC[C@H]2O[C@@H](CC(=O)N3CCN(c4ccccc4OC)CC3)[C@H](O)[C@@H]2O)cc1 | 0%

Other structures:
SMILES | hNpr1 antagonist
COCc1ccc(CN[C@H]2C[C@@H](Cc3cc(CN4CCCCC4)on3)C2(C)C)o1 | -19%[70.6 µM]
CCC(=O)N1CCC2(CC1)CC(Cc1nc(CCOC)no1)CCO2 (centres undefined) | 3%
CN(C(=O)c1ccc(Cl)s1)C1CCc2nn(CC3CC3)c(=O)n2CC1 (centres undefined) | 4%
Cc1[nH]nc2c1C(c1ccccc1F)C(C#N)=C(N)O2 (centres undefined) | 1%
CCCNC(=O)N1CCC(O)(c2csc(CN3CCc4ccccc4C3)n2)CC1 | 4%[70.6 µM]
CC(C)CCNC(=O)C1CC(=O)N(c2n[nH]c3cccc(F)c23)C1 (centres undefined) | 2%
Cc1c(-c2ccc(F)cc2)[nH]c2ccc(CNCc3cnn(C)c3)cc12 | -22%
O=C(c1cccc(Cl)c1)N1CCC2(CC1)CC(Cc1ccccc1)=NO2 | 1%
COCC1CN(C2CCC2)CC12CCN(C(=O)Cc1ccccc1)CC2 (centres undefined) | 8%
O=C1CC(C(=O)O)C2(CCN(C(=O)C3(Cn4ccnc4)CC3)CC2)N1 (centres undefined) | 16%
O=C(c1ccccc1)N1CCc2nc(C3CC3)nc(-c3ccc(O)cc3)c2CC1 | -20%
CCn1ncc(N2CCCC(CC(=O)Nc3ccc(F)c(F)c3)C2)cc1=O (centres undefined) | -19%
COc1cccc(CNC(=O)Cn2c(-c3cccc(Cl)c3)nc(C)c(CCO)c2=O)c1 | 4%
COCC1CN(Cc2ccc(Br)s2)CC12CCNCC2 (centres undefined) | -3%
Cc1cc(C)c(CNC(=O)c2nc(-c3ccccc3C)cc3c2ccn3C(C)C)c(=O)[nH]1 | ?
CC(C)CC(=O)N1CCC(N2C[C@H](O)C[C@H]2C(=O)NCc2cccnc2)CC1 | 5%
COc1cccc(CCN(Cc2cccc(C)c2)C(=O)[C@H]2CCC[C@H](O)C2)c1 | -3%
COc1cccc(CN2CC[C@@]3(O)CCNC[C@H]3C2)c1OCCCn1ccnc1 | -2%
c1cc2nc(C3CCN(C4CCCCC4)C3)[nH]c2cn1 (centres undefined) | 1%[70.6 µM]
O=C(C1CN(S(=O)(=O)c2ccccc2)CC12CCCCC2)N1CCOCC1 (centres undefined) | -1%

Entries listed above printed as active in hNpr1 antagonist.
SMILES | hNpr1 antagonist
NC[C@H]1O[C@H](Cc2cc(-c3cccc(O)c3)on2)CC[C@@H]1O | 2.5µM*

The list goes on:
SMILES | hNpr1 antagonist
Cc1oc(-c2ccc(NC(=O)Cc3ccccc3)cc2)nc1CNC(=O)c1ccc(-c2ccco2)cc1 | 2%
COCCOc1ccc2c(n1)CCN(C(=O)c1ccsc1)C2 | 1%
C[C@H]1[C@@H]2[C@@H](O)[C@H]([C@H](C)C(=O)N3CCCC3)CC[C@@]2(C)CC[C@@H]1NC(=O)CC(C)(C)C | 1%[70.6 µM]
Cc1ccccc1S(=O)(=O)N1C[C@@H](Oc2cccnc2)C[C@H]1C(N)=O | 1%
Cc1cc(C)cc(C(=O)Nc2cccc(-c3nnc4n3CCCC4)c2)c1 | -2%
O=C(CCNc1c(-c2cccc(F)c2)nc2cnccn12)N1CCCC1 | -11%
COc1ccc(-c2nnc3ccc(NC4CCCCC4)nn23)nc1 | -12%[70.6 µM]
O=C1c2c(-c3nc(-c4ccsc4)no3)nnn2CCN1CC1CCCO1 (centres undefined) | 4%
Cc1cc(CNC(=O)C2CC(=O)N(c3ccc(C(C)C)cc3)C2)no1 (centres undefined) | 2%
CC1(C)CN(C(=O)c2ccccc2Oc2ccccc2)CC1(C)O (centres undefined) | 5%
CC1CCN(CCCNC(=O)C2CCCN(Cc3ccncc3)CCC(=O)NCC2)CC1 (centres undefined) | 3%
COc1ccc(-c2ccc3nc(-c4cc(F)ccc4F)oc3c2)c(OC)c1OC | 3%
COc1ccc(-c2cc3c(=O)n(CCNC(=O)c4ccccn4)ccn3n2)cc1 | -11%
O=S(=O)(c1ccc(F)cc1)N1CCCC(Cc2noc(-c3cccnc3)n2)C1 (centres undefined) | ?
Cc1ccc(CNC(=O)N2CCCC(c3noc(COc4ccccc4F)n3)C2)cc1 (centres undefined) | -26%
CCn1cc(S(=O)(=O)N2CCC3(CC2)CN(Cc2ccc(OC)cc2)C3=O)cn1 | 2%
CC(C)Cn1c(CN(C)C(C)c2ccon2)cnc1S(=O)(=O)Cc1ccccc1 (centres undefined) | -1%
Cc1nccc(N2CCC3(CC2)CN(CCCN2CCC(N(C)C)C2)C(=O)O3)n1 (centres undefined) | 0%
CCNC(=O)c1n[nH]c2c1CN(C(=O)c1cccc(Cl)c1)CC2 | 2%
COc1ccc(C(=O)N[C@H]2CCOC[C@H]2C2CCOCC2)cc1O | 9%
Cc1cc(=O)n(CC(=O)Nc2ccc(F)cc2)c(N2CCN(c3ccccc3)CC2)n1 | 0%
CCCc1noc(-c2cn(C3CCN(C(=O)c4ccoc4)CC3)nn2)n1 | 1%
COCCn1nnnc1C1CC2(CCOCC2)C(=O)N1Cc1cccc(C)c1 (centres undefined) | 2%
Cc1cnc(C(=O)N[C@@H]2CCC[C@@H]2C(=O)Nc2ccc(C)c(F)c2)cn1 | -1%
COC[C@@H]1CN(C(=O)c2cc3ccccc3[nH]2)C[C@H]1c1nc(C)no1 | 3%
COc1ccc(OCc2cc(C(=O)NCc3ccncc3C)n[nH]2)c(Cl)c1 | 8%
Cc1ccc(S(=O)(=O)N2CCc3c(C(=O)NCC(C)C)cccc32)cc1 | ?
CN1CCC2(C1)CN(Cc1ccccc1)c1ccc(C(=O)NCC3CC3)cc12 (centres undefined) | -2%[70.6 µM]
COc1ccc(CC(=O)Nc2cnc(-c3ccc(C)cc3)nc2)cc1 | -1%
CCCOCCCNC(=O)c1c(C)noc1-c1ccccc1Cl | 2%
COc1ccc(OC)c(NC(=O)CN2C(=O)NC(c3ccc(Cl)cc3)C3=C2COC3=O)c1 (centres undefined) | -1%

Filtered by structure: the compounds so far with bromine
SMILES | hNpr1 antagonist
CC(C)OCCCNC(=O)C1CC(=O)N(c2n[nH]c3cc(Br)ccc23)C1 (centres undefined) | 0%
CCCN(CC1CCOC1)C(=O)Nc1ccc(Br)c(C)c1 (centres undefined) | 2%
COCC1CN(Cc2ccc(Br)s2)CC12CCNCC2 (centres undefined) | -3%
